Screening results as filed in PubChem BioAssay.
RN4220 kill – kills Staphylococcus aureus RN4220; S. aureus RN4220 growth, OD600, 16 h; inhibition, % (test concentration not listed); 330,000 compounds, 0.33% hits;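 active means z-score of -3 or lower and OD600 up to 0.18 on both plates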;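 further: plate controls were untreated cells for no effect and reference antibiotic for full effect; stock transfer was 100 nL into about 80 µL; one replicate is shown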
ugtP null kill – growth inhibition of S. aureus ugtP deletion strain | growth inhibition, % (no concentration beside the values) | 330,000 compounds, 0.54% hits | S. aureus RN4220 ugtP deletion, OD600 growth, 16 h; some inactives read as strong as hits;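 active means z-score under -3 and OD600 up to 0.15 on both plates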;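 further: plate controls were untreated wells for no effect and antibiotic for full effect; wells of about 80 µL received 100 nL stock; the first replicate is given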
PrP 5UTR inh – inhibition of PrP 5' UTR reporter expression | cell-based PrP 5' UTR mRNA reporter, plate reader | inhibition, % (test concentration not listed) | 340,000 compounds, 0.35% hits;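 active means every replicate at 50% or more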;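 further: 0 = median of the neutral control wells; tested in H4 reporter cells; numbers are from one replicate; inactives centre near -14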
Autofluor counter – compound fluorescence in toxin protease inhibitor counterscreen | compound autofluorescence counterscreen, microsphere flow cytometry; stronger effect = higher value | fluorescence intensity (concentration not given with the values) | 360,000 compounds, 3.1% hits;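 active means at least 3 SD above the mean of all compounds, about 16000 in these data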;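 further: 100 nL of 1 mM stock went into each well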
Mtb hypoxia rep – Mtb hypoxia fluorescent reporter inhibition. M. tuberculosis hypoxia-regulated fluorescent reporter, fluorescence. fluorescence inhibition, % (no concentration beside the values). 300,000 compounds, 0.1% hits. AID 1159583;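 active means 35 to 45% if threefold the growth effect, above 45% if 1.5-fold the growth effect; inactive means the rest, general growth blockers included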;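 further: wells of about 50 µL received 100 nL stock; 0% = vehicle wells and 100% = reference inhibitor wells; whole bacteria with a GFP reporter of the hypoxia response; strong numbers were not always called active; many hits fall short of the cut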
BJeLR lethal – kills HRASV12-expressing BJeLR cells; 300,000 compounds, 0.17% hits; BJeLR (HRASV12) viability, CellTiter-Glo ATP luminescence, 48 h; reference of the scale not given here; inhibition, % (no concentration beside the values); AID 1554;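 active means replicate mean above 50%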;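 further: 50 nL library stock added to about 25 µL; numbers are from one replicate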
Mtb hypoxia rep growth – further read-out of Mtb hypoxia rep, marked with its call; growth inhibition, %; measured here: M. tuberculosis growth (absorbance);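 0% = vehicle and 100% = reference antibiotic; read after six days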
Active calls of the source: *; · = no result given; & = joins results of further samples; ! = repeats disagree. Not all compounds are listed (hit frequency here may not be typical).

| nr | SMILES | RN4220 kill | ugtP null kill | PrP 5UTR inh | Autofluor counter | Mtb hypoxia rep | Mtb hypoxia rep growth | BJeLR lethal |
| --- | --- | --- | --- | --- | --- | --- | --- | --- |
| 1 | Nc1c2ccccc2nc2ccccc12 | 0.8&-0.5 | 2.8&13.1 | -30.8 | 3899&4709 | -0.8&1.7 | -5.7&-9.8 | 88.6*! |
| 2 | O=C(c1ccccn1)N(Cc1cccs1)C1(C(=O)NC2CCCCC2)CCCCC1 | 7.7 | 14.0 | 3.7 | 4644 | 11.2 | 3.7 | 0.1 |
| 3 | CCCCCCCCCCCCCCCC(O)C(N)CO (configuration not stated) | 99.9* | 100.2* | -15.0 | 4352 | 3.6&3.6 | 7.7&-3.9 | -2.4 |
| 4 | CCc1cccc(CC)c1NC(=O)CN(CC(=O)O)CC(=O)O | 8.7 | 8.0 | -16.9 | 4186 | 11.0 | 4.5 | · |
| 5 | O=C(CCN1CCN(CCO)CC1)N1c2ccccc2Sc2ccc(C(F)(F)F)cc21 | 1.1 | 0.2 | -9.3 | 5879 | · | · | -0.6 |
| 6 | CC(C)NNC(=O)c1ccncc1 | 1.4 | -4.3 | 23.0 | 5272 | 2.8 | -1.5 | 2.2 |
| 7 | Cc1nc2c3ccccc3nc(NNC(=O)CCC(=O)N3CCN(c4ccccc4F)CC3)n2n1 | 3.9 | 11.4 | -25.2 | 4889 | 7.5 | 6.6 | 8.4 |
| 8 | CCc1ccccc1OCC(O)CNC1CCCc2ccccc21 (configuration not stated) | 7.1 | 43.2 | · | · | 7.6 | 3.1 | · |
| 9 | CCN(CCCCOC(=O)c1ccc(OC)c(OC)c1)C(C)Cc1ccc(OC)cc1 (configuration not stated) | 2.0 | 4.7 | -0.2 | 4118 | -1.8 | 3.5 | -1.5 |
| 10 | O=C(O)c1cc(=O)c2ccccc2o1 | 0.6 | 0.3 | 1.3 | 5713 | -3.1 | -6.5 | 8.9 |
| 11 | CC(Cc1cccc(C(F)(F)F)c1)NCCOC(=O)c1ccccc1 (configuration not stated) | 11.1&13.9 | -0.9&2.3 | 0.5&-20.6 | 5152&5822 | 9.4&7.9 | 2.6&-0.6 | 2.9 |
| 12 | CN(C)S(=O)(=O)n1cc(/C=C(\NC(=O)c2ccccc2)C(=O)NCCCn2ccnc2)c2ccccc21 | -0.2 | 3.6 | -18.5 | 5103 | 11.8 | 4.3 | -6.8 |
| 13 | CN[C@@H]1[C@H](O)[C@H](NC)[C@H]2O[C@@]3(O)C(=O)C[C@@H](C)O[C@H]3O[C@@H]2[C@H]1O | 8.5 | 19.9 | -90.2 | 3555 | · | · | 13.1 |
| 14 | CN(C)CC=C(c1ccc(Br)cc1)c1cccnc1 | 9.1&4.1 | -5.1&0.8 | · | · | -1.4&1.6 | 9.1&1.7 | · |
| 15 | O=C(O)Cc1cn(-c2ccccc2)nc1-c1ccc(Cl)cc1 | 1.1 | -13.8 | -24.7 | 4013 | -1.4 | -4.3 | 1.4 |
| 16 | CCCOc1ccc(C(=O)OCCN(CC)CC)cc1N | 0.3 | -3.6 | -8.3 | 4207 | -12.6 | 0.8 | 9.7 |
| 17 | Cc1scc2c1N(C(=O)CN1CCN(C)CC1)c1ccccc1NC2=O | 1.9 | -6.2 | -38.9 | 6250 | -4.1 | 0.8 | -1.9 |
| 18 | O=C(NC1CCN(CCc2c[nH]c3ccccc23)CC1)c1ccccc1 | -3.8 | 3.2 | -4.2 | 3812 | -11.6 | 5.1 | 5.0 |
| 19 | COc1ccc(C(=O)c2ccccc2)c(O)c1 | 7.5 | 0.1 | 1.5 | 23016* | -3.1 | 6.0 | 1.6 |
| 20 | CCCC1(c2ccccc2)NC(=O)N(CC(=O)N(C)Cc2c(F)cccc2Cl)C1=O (configuration not stated) | 2.3 | 4.6 | -36.1 | 5155 | 12.5 | 6.2 | 0.0 |
| 21 | CCCC(=O)O[C@]1(C(=O)CCl)[C@@H](C)C[C@H]2[C@@H]3CCC4=CC(=O)C=C[C@]4(C)[C@@]3(F)C(=O)C[C@@]21C | · | · | 2.8 | 5816 | · | · | -7.9 |
| 22 | CC1O[C@@H](OCC2O[C@@H](Oc3cc(O)c4c(c3)OC(c3ccc(O)cc3)CC4=O)[C@H](O)[C@@H](O)[C@@H]2O)[C@H](O)[C@H](O)[C@H]1O (some centres not stated) | 0.6 | 2.0 | -16.9 | 5884 | · | · | · |
| 23 | NC(Cc1c[nH]c2ccc(O)cc12)C(=O)O (configuration not stated) | 1.3 | -4.9 | · | · | 3.7 | -2.0 | · |
| 24 | CCC(C(=O)Nc1ccccc1N1CCCC1)c1ccccc1 (configuration not stated) | -1.7 | 11.8 | 1.1 | 6186 | 10.1 | 4.4 | 7.4 |
| 25 | CCCCN(CCCC)CCCOC(=O)c1ccc(N)cc1 | 4.0 | 3.1 | -8.3 | 5800 | -0.9 | -4.3 | -11.7 |
| 26 | CC[C@]12CCCN3CCc4c(n(c5ccccc45)[C@](O)(C(=O)OC)C1)C32 (some centres not stated) | 11.5 | 4.4 | · | · | 5.4 | 1.2 | · |
| 27 | COc1cc(C2Oc3cc(C4Oc5cc(O)cc(O)c5C(=O)C4O)ccc3OC2CO)ccc1O (configuration not stated) | 7.8&6.4 | 3.1&-4.3 | -15.0 | 6143 | 0.7&2.0 | 7.2&3.5 | -10.2 |
| 28 | CC(C)(C)NCC(O)COc1cccc2c1C[C@H](O)[C@H](O)C2 (some centres not stated) | · | · | -1.5 | 4140 | · | · | -0.7 |
| 29 | COc1ccc(C=NNC(=O)c2ccncc2)cc1OC | 0.9 | 0.2 | · | · | · | · | · |
| 30 | CC1(C)O[C@@H]2C[C@H]3[C@@H]4C[C@H](F)C5=CC(=O)C=C[C@]5(C)[C@@]4(F)[C@@H](O)C[C@]3(C)[C@]2(C(=O)CO)O1 | · | · | 28.6 | 4314 | · | · | -6.3 |

Continued; the last 3 above are carried over.
| nr | SMILES | RN4220 kill | ugtP null kill | PrP 5UTR inh | Autofluor counter | Mtb hypoxia rep | Mtb hypoxia rep growth | BJeLR lethal |
| --- | --- | --- | --- | --- | --- | --- | --- | --- |
| 28 | CC(C)(C)NCC(O)COc1cccc2c1C[C@H](O)[C@H](O)C2 (some centres not stated) | · | · | -1.5 | 4140 | · | · | -0.7 |
| 29 | COc1ccc(C=NNC(=O)c2ccncc2)cc1OC | 0.9 | 0.2 | · | · | · | · | · |
| 30 | CC1(C)O[C@@H]2C[C@H]3[C@@H]4C[C@H](F)C5=CC(=O)C=C[C@]5(C)[C@@]4(F)[C@@H](O)C[C@]3(C)[C@]2(C(=O)CO)O1 | · | · | 28.6 | 4314 | · | · | -6.3 |
| 31 | CCCCOc1cc(C(=O)OCCN(CC)CC)ccc1N | 2.5&4.1 | 0.6&0.2 | -5.6&-5.0 | 6296&6626 | 4.1&-4.5 | -0.2&-0.6 | -6.0 |
| 32 | COC(=O)N/N=C/c1c[n+]([O-])c2ccccc2[n+]1[O-] | · | · | -6.6 | 4134 | · | · | -6.6 |
| 33 | Cc1cc(=O)oc2cc(O)ccc12 | 0.9 | 2.4 | -14.6 | 4222 | · | · | -0.1 |
| 34 | COc1cc2c(c(OC)c1OC)-c1c(cc(OC)c(OC)c1OC)CC(C)C(C)C2 (configuration not stated) | 5.9 | 29.7 | · | · | 18.1 | 8.1 | · |
| 35 | O=C(Nc1cc(-c2ccccc2)nn1-c1ccccc1F)c1ccc([N+](=O)[O-])cc1 | 8.2 | -10.2 | -13.8 | 3603 | -1.4 | 13.0 | · |
| 36 | CCCC(=O)O[C@]1(C(=O)COC(C)=O)CC[C@H]2[C@@H]3C[C@H](F)C4=CC(=O)C=C[C@]4(C)[C@@]3(F)[C@@H](O)C[C@@]21C | · | · | 30.8 | 6390 | · | · | 8.2 |
| 37 | Nc1ncnc2c1c(-c1ccc(Oc3ccccc3)cc1)cn2C1CCCC1 | -3.1 | -8.4 | 21.2 | 5973 | 4.4 | -0.6 | · |
| 38 | CC(=O)Oc1ccc2c(C)cc(=O)oc2c1 | 2.5 | -2.0 | -13.1 | 2438 | · | · | 1.1 |
| 39 | Cc1c(C)n(Cc2ccccc2)c2ccc(C(=O)OCCN(C)C)cc12 | 0.9 | -20.3 | -13.2 | 4554 | 20.6 | 15.3 | 2.5 |
| 40 | CC(C)(C)NCC(O)COc1cccc2c1CC(O)C(O)C2 (configuration not stated) | 2.6&1.5 | -6.9&2.2 | -25.6 | 5663 | -2.3&-2.1 | 2.2&-1.1 | · |

6 compounds from above, ordered by length of the SMILES, low to high.
| nr | SMILES | RN4220 kill | ugtP null kill | PrP 5UTR inh | Autofluor counter | Mtb hypoxia rep | Mtb hypoxia rep growth | BJeLR lethal |
| --- | --- | --- | --- | --- | --- | --- | --- | --- |
| 33 | Cc1cc(=O)oc2cc(O)ccc12 | 0.9 | 2.4 | -14.6 | 4222 | · | · | -0.1 |
| 31 | CCCCOc1cc(C(=O)OCCN(CC)CC)ccc1N | 2.5&4.1 | 0.6&0.2 | -5.6&-5.0 | 6296&6626 | 4.1&-4.5 | -0.2&-0.6 | -6.0 |
| 40 | CC(C)(C)NCC(O)COc1cccc2c1CC(O)C(O)C2 (configuration not stated) | 2.6&1.5 | -6.9&2.2 | -25.6 | 5663 | -2.3&-2.1 | 2.2&-1.1 | · |
| 37 | Nc1ncnc2c1c(-c1ccc(Oc3ccccc3)cc1)cn2C1CCCC1 | -3.1 | -8.4 | 21.2 | 5973 | 4.4 | -0.6 | · |
| 35 | O=C(Nc1cc(-c2ccccc2)nn1-c1ccccc1F)c1ccc([N+](=O)[O-])cc1 | 8.2 | -10.2 | -13.8 | 3603 | -1.4 | 13.0 | · |
| 36 | CCCC(=O)O[C@]1(C(=O)COC(C)=O)CC[C@H]2[C@@H]3C[C@H](F)C4=CC(=O)C=C[C@]4(C)[C@@]3(F)[C@@H](O)C[C@@]21C | · | · | 30.8 | 6390 | · | · | 8.2 |

Structural class, those above with a CF3 group.
| nr | SMILES | RN4220 kill | ugtP null kill | PrP 5UTR inh | Autofluor counter | Mtb hypoxia rep | Mtb hypoxia rep growth | BJeLR lethal |
| --- | --- | --- | --- | --- | --- | --- | --- | --- |
| 5 | O=C(CCN1CCN(CCO)CC1)N1c2ccccc2Sc2ccc(C(F)(F)F)cc21 | 1.1 | 0.2 | -9.3 | 5879 | · | · | -0.6 |
| 11 | CC(Cc1cccc(C(F)(F)F)c1)NCCOC(=O)c1ccccc1 (configuration not stated) | 11.1&13.9 | -0.9&2.3 | 0.5&-20.6 | 5152&5822 | 9.4&7.9 | 2.6&-0.6 | 2.9 |
